2A StopGo – High Throughput Screening for Foot and Mouth Disease Virus Antivirals | human cells with a luciferase reporter of 2A StopGo recoding; control for the full effect not named in the record | Potency, µM (doses to about 57.9 µM), for the others: top-dose signal change, negative = less light | 410,000 compounds, 1.2% hits; active = well fitted falling curve with a large enough effect; inconclusive = small, poorly fitted or top-dose-only effect; inactive = no such curve, though single readings can be large or run the other way; tested in HEK293T cells; also: nearly all actives have a fitted effect of over 45% in size; luciferase light after 4 h
RE007 growth inh – qHTS Assay for Inhibitors of the HIV-1 protein Vpr. S. pombe RE007 Vpr strain, BacTiter-Glo ATP luminescence, 24 h; control for the full effect not named in the record. Potency, µM (highest dose often 92.2 µM), for inactives: at the highest dose activity change, negative = less growth. 360,000 compounds, 0.21% hits; active = well fitted falling curve with a large enough effect; inconclusive = small, poorly fitted or top-dose-only effect; inactive = no such curve, though single readings can be large or run the other way;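 also: nearly all actives have a fitted effect of over 50% in size; the assay follows cell death caused by Vpr and the record does not say whether a fall means rescue or toxicity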
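Fission yeast RE007 carrying one integrated HIV-1 vpr copy, seeded at OD 0.01 in PMG+AL medium with 23 nL pinned compound. Grown 24 h at 30 degrees; viability read by BacTiter-Glo luminescence after 5 min.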
Starred values were filed as active, the others as inactive; [ ] = another dose, or the depositor's remark. % is scaled to controls: 0 for no effect and ±100 for the full control effect; potency is read from the fitted curve at half-maximal effect. A portion of the library; rates above refer to the full screens.

Results for COc1ccc(CCNC(=O)CC(=O)N/N=C\c2ccc(OCC(N)=O)cc2)cc1OC ?
2A StopGo: -16%; RE007 growth inh: -4%

What do the screens show for `CCCNC(=O)C1(C)CCCN(Cc2ccc(-n3ccnc3)cc2)C1` (stereo not drawn)?
2A StopGo: -18%; RE007 growth inh: -8%

What do the screens show for `CCc1nc2ccc(C(=O)NCc3ccc4c(c3)OCO4)cn2c1N(C)C(=O)Cc1ccccc1`?
2A StopGo: -3%; RE007 growth inh: 4%[18.4 µM]

Results for CCCCNC(=O)C1(C)CCCCN1C(=O)c1cccc(OC(F)(F)F)c1 (stereo not drawn) ?
2A StopGo: -5%; RE007 growth inh: 24%

How did CC(C)C[C@@H](CN1CCC[C@H]1CN1C(=O)C(=O)NC[C@@H]1Cc1ccccc1)N1C[C@H](Cc2ccc(O)cc2)N(CC2CCCCC2)C(=O)C1=O do in these assays?
2A StopGo: -18%; RE007 growth inh: 7%

Results for O=C(Nc1c(-c2ccc(Cl)cc2)[nH][nH]c1=O)c1ccccc1Cl ?
2A StopGo: 5%; RE007 growth inh: -7%

What do the screens show for `CCCCN(C(C)=O)c1c(CC)nc2ccc(C(=O)NCCOc3ccc(OC)cc3)cn12`?
2A StopGo: 24%; RE007 growth inh: -3%[18.4 µM]

What do the screens show for `CNC(=O)OC1CC2CC1[C@H]1CCCCN1C2=O` (stereo partly drawn)?
2A StopGo: -9%; RE007 growth inh: 12%

How did CN1CCN(C(=O)c2cc3c(c(-c4cccc(Br)c4)n2)[C@H](CCO)N(S(=O)C(C)(C)C)C3)CC1 (stereo partly drawn) do in these assays?
2A StopGo: -22%; RE007 growth inh: -5%

Results for CC(=O)Nc1ccc(CN2C(=O)C(Cc3ccccc3)ON=C2c2ncccc2C)cc1 (stereo not drawn) ?
2A StopGo: -4%; RE007 growth inh: -15%[18.4 µM]

How did CN(C)CCNc1ncnc2c1ncn2[C@H]1CN(Cc2ccccc2)C[C@@H](CO)O1 do in these assays?
2A StopGo: -25%; RE007 growth inh: 11%

How did CCOC(=O)C1=C(C)NC(C)=C(C(=O)OCC)C1c1ccncc1 do in these assays?
2A StopGo: 0%; RE007 growth inh: -4%

What do the screens show for `CC(C)n1nnnc1C1c2ccccc2C(=O)N1Cc1cccs1` (stereo not drawn)?
2A StopGo: 7%; RE007 growth inh: 14%

How did COc1ccc(S(=O)(=O)Nc2ccc3c(c2)C(=O)N([C@@H](C)CO)C[C@@H](C)[C@H](CN(C)C(=O)CCCN(C)C)OCCCC[C@H](C)O3)cc1 do in these assays?
2A StopGo: -17%; RE007 growth inh: -2%

Results for O=C(NC1CCCCC1)C1c2ccccc2OCC(=O)N1C1CC1 (stereo not drawn) ?
2A StopGo: -10%; RE007 growth inh: 18%

How did COC(=O)c1ccc(N2C(c3cc(OC)cc(OC)c3)=Cc3ccc(OC)cc3C2CC(=O)c2ccco2)cc1 (stereo not drawn) do in these assays?
2A StopGo: 4%; RE007 growth inh: 1%

Results for COCCNC(=O)C1(C)CCCN(C(=O)c2ccc(F)cc2Cl)C1 (stereo not drawn) ?
2A StopGo: -13%; RE007 growth inh: 8%[18.4 µM]

Results for CC1(C(=O)Nc2cccc(C(F)(F)F)c2)Cc2c(-c3cccc(C(F)(F)F)c3)ccnc2O1 (stereo not drawn) ?
2A StopGo: -22%; RE007 growth inh: -1%[18.4 µM]

How did COc1ccccc1Cn1c(C)c(C(=O)NCc2cccc(C)c2)sc1=O do in these assays?
2A StopGo: -10%; RE007 growth inh: 3%[18.4 µM]

What do the screens show for `CCCCN(C)C(=O)c1sc(=O)n(Cc2ccccc2C#N)c1C`?
2A StopGo: 15%; RE007 growth inh: 4%[18.4 µM]

Reprinted from the part before: 4 entries, then new ones.
Results for COCCNC(=O)C1(C)CCCN(C(=O)c2ccc(F)cc2Cl)C1 (stereo not drawn) ?
2A StopGo: -13%; RE007 growth inh: 8%[18.4 µM]

Results for CC1(C(=O)Nc2cccc(C(F)(F)F)c2)Cc2c(-c3cccc(C(F)(F)F)c3)ccnc2O1 (stereo not drawn) ?
2A StopGo: -22%; RE007 growth inh: -1%[18.4 µM]

How did COc1ccccc1Cn1c(C)c(C(=O)NCc2cccc(C)c2)sc1=O do in these assays?
2A StopGo: -10%; RE007 growth inh: 3%[18.4 µM]

What do the screens show for `CCCCN(C)C(=O)c1sc(=O)n(Cc2ccccc2C#N)c1C`?
2A StopGo: 15%; RE007 growth inh: 4%[18.4 µM]

How did CC(C)N(C)c1ncnc2c1ncn2[C@H]1CN(Cc2ccco2)C[C@@H](CO)O1 do in these assays?
2A StopGo: 7%; RE007 growth inh: 2%

Results for COc1ccc(C(O)c2nc(-c3ccc4ccccc4c3)cs2)cc1 (stereo not drawn) ?
2A StopGo: 25%; RE007 growth inh: -4%[18.4 µM]

What do the screens show for `Cc1c(Cl)cccc1N=C1NC(=O)CS1`?
2A StopGo: 0%; RE007 growth inh: -20%

How did COc1ccc(CCN2CC(C(=O)NCc3cccc(F)c3)CCC2=O)cc1 (stereo not drawn) do in these assays?
2A StopGo: -8%; RE007 growth inh: 1%

How did O=C(Cc1cccc(NC(=O)C2CCN(C(=O)C3CCCC3)CC2)c1)Nc1cccc(C(=O)N2CCCCC2)c1 do in these assays?
2A StopGo: -8%; RE007 growth inh: -7%

How did CCOc1cc(N2CCOCC2)c(OCC)cc1NC(=O)c1ccc(S(=O)(=O)N2CC(C)OC(C)C2)cc1 (stereo not drawn) do in these assays?
2A StopGo: -19%; RE007 growth inh: -5%

How did C[C@@H]1CN([C@@H](C)CO)C(=O)CCCn2nncc2CO[C@H]1CN(C)Cc1ccc(C(F)(F)F)cc1 do in these assays?
2A StopGo: -10%; RE007 growth inh: -7%

Results for CCCCCCNC(=O)O[C@H]1C[C@@H]2C(=O)N(c3ccccc3)C(=O)[C@@H]2[C@@H]2CN(S(=O)(=O)c3ccc(C)cc3)C[C@]12O ?
2A StopGo: -6%; RE007 growth inh: -6%

Results for CCCCNC(=O)C1c2ccccc2OCC(=O)N1CCc1ccc(OC)c(OC)c1 (stereo not drawn) ?
2A StopGo: -11%; RE007 growth inh: 15%

Results for CSCc1ccc(C(=O)OCC(=O)NC2CCCC2)o1 ?
2A StopGo: -6%; RE007 growth inh: 16%

What do the screens show for `CCc1nc2ccc(C(=O)NCc3cccs3)cn2c1N(CC)CCN(C)C`?
2A StopGo: -8%; RE007 growth inh: -1%

What do the screens show for `CN1OC[C@@H]2CN(C(=O)c3ccc(-c4ccccc4)cc3)[C@H](c3ccc(-c4cccc(F)c4)cc3)C[C@@H]21`?
2A StopGo: 15%; RE007 growth inh: 0%

What do the screens show for `O=C(/C=C/[C@H]1O[C@@H](n2ccc(=O)[nH]c2=O)[C@H](O)[C@@H]1O)NCc1ccco1`?
2A StopGo: -17%; RE007 growth inh: 18%

How did C/C=C/c1cccc(-c2nc(C(=O)NC3CCCC3)cc3c2[C@@H](CCO)N(S(=O)C(C)(C)C)C3)c1 (stereo partly drawn) do in these assays?
2A StopGo: -24%; RE007 growth inh: -15%

Results for CCc1nc2ccc(C(=O)Nc3cccc(OC)c3)cn2c1N(CCC(C)C)CCN(C)C ?
2A StopGo: -7%; RE007 growth inh: -27%

What do the screens show for `CCOC(=O)/C=C/c1cccc(C)c1O`?
2A StopGo: 44%[activator]; RE007 growth inh: -28%

What do the screens show for `CC(C)c1ccc(NC(=O)Nc2nc(C(N)C3CCCCC3)cs2)cc1` (stereo not drawn)?
2A StopGo: inconclusive; RE007 growth inh: 2%

What do the screens show for `COc1ccc(-c2csc(C(O)c3ccc(F)cc3)n2)cc1` (stereo not drawn)?
2A StopGo: 40%[activator]; RE007 growth inh: -13%

How did CCOC(=O)C12C(=O)OCC1C2c1ccccc1 (stereo not drawn) do in these assays?
2A StopGo: -19%; RE007 growth inh: 15%

How did CCOc1ccc(NC(=O)CSc2nc3cc(C(=O)NCC4CCCO4)ccc3c(=O)n2CC2CCCO2)cc1 (stereo not drawn) do in these assays?
2A StopGo: -19%; RE007 growth inh: -6%

Sorted by SMILES length (lowest first): four of the compounds above
Results for CCc1nc2ccc(C(=O)Nc3cccc(OC)c3)cn2c1N(CCC(C)C)CCN(C)C ?
2A StopGo: -7%; RE007 growth inh: -27%

How did CC(C)N(C)c1ncnc2c1ncn2[C@H]1CN(Cc2ccco2)C[C@@H](CO)O1 do in these assays?
2A StopGo: 7%; RE007 growth inh: 2%

How did CCOc1ccc(NC(=O)CSc2nc3cc(C(=O)NCC4CCCO4)ccc3c(=O)n2CC2CCCO2)cc1 (stereo not drawn) do in these assays?
2A StopGo: -19%; RE007 growth inh: -6%

Results for CCCCCCNC(=O)O[C@H]1C[C@@H]2C(=O)N(c3ccccc3)C(=O)[C@@H]2[C@@H]2CN(S(=O)(=O)c3ccc(C)cc3)C[C@]12O ?
2A StopGo: -6%; RE007 growth inh: -6%

(more compounds)
What do the screens show for `O=C(NCc1ccccc1)C1=C[C@H](c2ccc3c(c2)OCO3)C[C@H](OCc2ccc(CO)cc2)O1`?
2A StopGo: 37%[activator]; RE007 growth inh: -10%

Results for CCn1c(SCc2c(Cl)cccc2Cl)nc2nc3c(cc2c1=O)CCCC3 ?
2A StopGo: inconclusive; RE007 growth inh: 5%

What do the screens show for `C[C@H](NC(=O)c1ccccc1)C(=O)OCC(=O)Nc1ccc(Cl)cn1`?
2A StopGo: 0%; RE007 growth inh: 5%

How did Cc1ccc(Cn2c(C3CCCN3c3nc(-c4cc(Cl)c(N)c(Cl)c4)cs3)nc3cc(C(=O)NCCCO)ccc32)cc1 (stereo not drawn) do in these assays?
2A StopGo: 0%; RE007 growth inh: -1%

Results for O=C(NN=Cc1ccc(O)c(O)c1)c1ccccc1 ?
2A StopGo: 17%; RE007 growth inh: -3%

Results for CCCCNC(=O)C1(C)CCN1C(=O)c1cc(C)n(C(C)(C)C)n1 (stereo not drawn) ?
2A StopGo: 0%; RE007 growth inh: 1%[18.4 µM]

Results for Cc1cc(C)nc(SCC(=O)N2CCc3ccccc32)n1 ?
2A StopGo: 31%[activator]; RE007 growth inh: 0%

Results for COc1cccc(SCc2noc(C(=O)NCCC(C)C)c2C(=O)NCCC(C)C)c1 ?
2A StopGo: inconclusive; RE007 growth inh: 9%

Results for Cc1ccc(NC(=O)CSC(C)C(=O)OCc2cc(=O)oc3cc(O)ccc23)cc1 (stereo not drawn) ?
2A StopGo: 0%; RE007 growth inh: 7%

How did CC1(C(=O)NS(=O)(=O)c2ccc(C#N)cc2)CCN1C(=O)CC1CC1 (stereo not drawn) do in these assays?
2A StopGo: -12%; RE007 growth inh: 5%

Results for O=c1[nH]cnc2c1ncn2C1OCC(O)C(O)C1O (stereo not drawn) ?
2A StopGo: -3%; RE007 growth inh: 20%

How did O=C(NCc1cccnc1)[C@@H]1CC=C[C@@H]2CCN(Cc3ccc(Cl)c(Cl)c3)C(=O)[C@@H]21 do in these assays?
2A StopGo: -12%; RE007 growth inh: -10%

What do the screens show for `CCCNC(=O)C1(C)CCN(C(=O)COCc2ccccc2)C1` (stereo not drawn)?
2A StopGo: -8%; RE007 growth inh: 19%

Results for COc1ccc(C(O)c2nc(-c3ccccc3OC)cs2)cc1 (stereo not drawn) ?
2A StopGo: -12%; RE007 growth inh: -2%

How did O=C(COc1ccccc1)Nc1c2c(nn1-c1ccc(F)cc1)CS(=O)C2 (stereo not drawn) do in these assays?
2A StopGo: -18%; RE007 growth inh: 13%

Results for CCCCCC(=O)N1C[C@H](O)[C@@H](n2cc(-c3ccc(F)cc3)nn2)C[C@@H]1c1ccc(C)cc1 ?
2A StopGo: inconclusive; RE007 growth inh: 4%

Results for CC(=O)Nc1cccc(-c2ccnc3c2CC(C(=O)NCCN(C)C)O3)c1 (stereo not drawn) ?
2A StopGo: -1%; RE007 growth inh: -4%

Results for CC/C(=N/NC(=O)c1ccc2c(c1)OCO2)c1ccccc1O ?
2A StopGo: 50%[activator]; RE007 growth inh: -10%

How did CSc1ncccc1C(=O)OC(C)C(=O)Nc1ccc2c(c1)OCCO2 (stereo not drawn) do in these assays?
2A StopGo: -27%; RE007 growth inh: 7%

Results for CCCc1nc2ccc(Cl)cn2c1Cc1ccc(C)cc1 ?
2A StopGo: 25%; RE007 growth inh: -21%

Results for COc1ccc(CN(C)C(=O)c2ccc(NC(=O)CC3SC(N4CCCCC4)=NC3=O)cc2)c(OC)c1 (stereo not drawn) ?
2A StopGo: 6%; RE007 growth inh: -10%

What do the screens show for `C[C@H]1CN([C@@H](C)CO)C(=O)CCCn2nncc2CO[C@@H]1CN(C)S(=O)(=O)c1cccc(C#N)c1`?
2A StopGo: -11%; RE007 growth inh: 3%

What do the screens show for `CC(=O)Nc1cccc(-c2cc(N3CCN(CCO)CC3)n3nccc3n2)c1`?
2A StopGo: -16%; RE007 growth inh: -9%

Results for CCCOc1cc2c(C#N)c(N3CCCC3)nc(N)c2c(N)n1 ?
2A StopGo: 19%; RE007 growth inh: -1%

Results for Nc1ccn([C@@H]2O[C@H](C(=O)Nc3ccc(Oc4ccccc4)nc3)[C@@H](O)[C@H]2O)c(=O)n1 ?
2A StopGo: -8%; RE007 growth inh: 4%

Results for CC1(C)OC2C(CO)OC(n3cnc4c(=S)nc(N)[nH]c43)C2O1 (stereo not drawn) ?
2A StopGo: -11%; RE007 growth inh: 2%

How did CC(=O)Nc1cc(-c2ccc(N3CCN(C)CC3)cc2)cn2c(-c3cccc(C(C)=O)c3)cnc12 do in these assays?
2A StopGo: 9%; RE007 growth inh: -19%
